From PubChem
TRPV1 PAM = potentiators of human vanilloid receptor 1 (TRPV1). AID 540277. potentiation, % at 8.33 µM. Q8NER1. TRPV1-expressing cells, Fluo-8 calcium influx, capsaicin EC20 potentiation; host cell line not named in the record; control for the full effect not named in the record. 320,000 compounds, 0.02% hits; active means potentiation above 80%; inconclusive means 30% to 80%; inactive means below 30%; note: 0% is about no effect
Target sequence (Q8NER1 whole entry, looked up): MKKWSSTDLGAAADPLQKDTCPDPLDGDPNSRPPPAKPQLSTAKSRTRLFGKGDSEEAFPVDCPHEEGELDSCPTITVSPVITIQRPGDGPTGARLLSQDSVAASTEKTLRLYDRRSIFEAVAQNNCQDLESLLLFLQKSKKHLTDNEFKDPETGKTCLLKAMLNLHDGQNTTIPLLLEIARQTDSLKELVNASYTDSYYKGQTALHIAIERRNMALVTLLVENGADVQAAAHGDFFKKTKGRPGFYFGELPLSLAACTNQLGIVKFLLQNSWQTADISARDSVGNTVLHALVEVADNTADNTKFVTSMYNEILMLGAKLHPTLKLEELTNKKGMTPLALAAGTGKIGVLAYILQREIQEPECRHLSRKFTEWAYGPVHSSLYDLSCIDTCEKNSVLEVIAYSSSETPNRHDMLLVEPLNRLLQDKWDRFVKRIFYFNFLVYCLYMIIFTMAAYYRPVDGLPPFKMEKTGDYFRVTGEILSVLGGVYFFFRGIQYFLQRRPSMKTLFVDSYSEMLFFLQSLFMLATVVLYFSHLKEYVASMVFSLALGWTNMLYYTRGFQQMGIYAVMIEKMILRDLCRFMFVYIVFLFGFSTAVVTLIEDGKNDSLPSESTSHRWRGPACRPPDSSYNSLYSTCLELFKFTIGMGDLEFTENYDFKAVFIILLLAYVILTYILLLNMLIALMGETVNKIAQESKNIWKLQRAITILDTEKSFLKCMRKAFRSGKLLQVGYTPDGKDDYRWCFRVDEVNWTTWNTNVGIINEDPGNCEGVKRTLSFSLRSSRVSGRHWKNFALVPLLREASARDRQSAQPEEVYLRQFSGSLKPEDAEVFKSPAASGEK
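TRPV1-expressing cells were cultured overnight at 35.5C and loaded with Fluo-8 calcium dye for 40 to 90 min at room temperature. After a 10 s baseline, compound was added and calcium influx was read kinetically for 3 min (ex 480/em 520 nm).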
Menin-MLL FL inh = menin-MLL binding inhibition, fluorescein peptide | Fluorescence polarization, fluorescein-MLL peptide displacement from menin | FP activity change, % at 61.4 µM | 290,000 tested, under 10 active; inconclusive = falling polarisation curve, or a change in total fluorescence; inactive = total fluorescence flat and polarisation flat or rising; no compound was filed as active; the % refers to the polarisation; negative = inhibition;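 note: % of control where 0% means no effect; inhibitors lower the polarisation; unlabelled MLL peptide was the positive control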
gsp ag = agonists of gsp mutant (McCune-Albright syndrome). gsp mutant cells, cAMP HTRF, 30 min; control for the full effect not named in the record. Potency, µM (titrated, usually from 76.9 µM), inactives show at the top dose activation (cAMP increase), actives largely listed as activators. 340,000 compounds, 0.13% hits. AID 624287; active = well fitted activation curve with a large enough effect; inconclusive = small, poorly fitted or top-dose-only effect, or another doubt; inactive = no such curve, though single readings can be large or run the other way; cell line not stated here;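 note: phosphodiesterase inhibitor Ro 20-1724 added with compounds to block cAMP breakdown; potency is the fitted concentration of half-maximal effect; nearly all actives have a fitted effect of over 60% in size; about a fifth of the inactives were tested at one dose only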
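Cells in DMEM/10% FBS with G418 were pretreated with compounds in DMSO plus […] (300 uM stock) for 30 min at 37C. cAMP was measured by HTRF (cAMP-d2 plus anti-cAMP antibody-K) after 30 min at room temperature.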
Sfp PPTase inh = Sfp phosphopantetheinyl transferase inhibition; Q9F4F7; 310,000 compounds, 3.5% hits; Biochemical Sfp PPTase activity, qHTS; Potency, µM, for inactives: max response, negative = inhibition, hits mostly inhibitors; active = well fitted inhibition curve with a large enough effect; inconclusive = small, poorly fitted or top-dose-only effect, or another doubt; inactive = no such curve, though single readings can be large or run the other way;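 note: the enzyme is Sfp with the accession as filed and its product quenches rhodamine fluorescence; potency is the fitted concentration of half-maximal effect; 0% = enzyme reaction without inhibitor and -100% = no enzyme wells; top concentration of the series not given in the record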
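Fluorescence-quenching assay with 15 nM Sfp, 5 uM rhodamine-CoA and 12.5 uM BHQ-2-labelled ybbR peptide in pH 7.6 Hepes/MgCl2 buffer. Enzyme was pre-incubated with compound for 15 min at room temperature. Rate was taken from the 30-min fluorescence change (525/598 nm).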
TRPML1 blocker = inhibitors of human TRPML1 channel | TRPML1-inducible cells, Ca2+ dye fluorescence, FDSS; stronger effect = lower value; inhibition of EC80 agonist-evoked calcium signal | Q9GZU1 | activity change, negative = inhibition, % (test concentration not listed) | 390,000 compounds, 0.02% hits; in the data active means activity change below about -50%; inconclusive means about -30% to -50%; inactive means above about -30%;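 note: stimulus is agonist 54-4 at its EC80 concentration; % is set by controls: 0 for no effect and ±100 for the full control effect; compound concentration not given in the record; the text of the record puts the active cut at -80%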
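TRPML1-DL cells, Tet-induced overnight (~16 h, 37 °C) at 1,500 cells/well, were loaded with Ca8 no-wash dye plus quencher for 45-90 min at room temperature. Compounds were pinned during FDSS kinetic reading; agonist 54-4 at EC80 (4 uM final) then added.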
gsp antag = gsp mutant antagonism | gsp-mutant cells, cAMP HTRF, 30 min; control for the full effect not named in the record | Potency, µM (titrated, usually from 76.9 µM), without a hit: at the top dose activity change, negative = inhibition, usual class: inhibitors | 340,000 compounds, 0.4% hits | AID 624288; active = falling curve of any shape with a large fitted effect; inconclusive = falling curve, mostly with a smaller effect; inactive = flat or rising curve; cell line not stated here;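 note: intracellular cAMP measured with PDE inhibitor Ro 20-1724 present during compound exposure; potency is the fitted concentration of half-maximal effect; % is set by controls: 0 for no effect and ±100 for the full control effect; nearly all actives have a fitted effect of over 65% in size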
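Cells, 2000/well, grown 16–24 h in DMEM 10% FBS with 0.5 mg/ml G418, then compounds plus […] (300 uM addition stock), 30 min at 37C. cAMP read by HTRF (cAMP-d2 and anti-cAMP antibody-K in lysis buffer) after 30 min RT.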
ClpP mod = qHTS Assay for Activators of ClpP. purified B. subtilis ClpP, FRET peptide cleavage, 20 min. Potency, µM (doses to about 57.5 µM), for inactives: at the top dose activity change, negative = active. 340,000 compounds, 1.9% hits. AID 651965, 2013; active = well fitted falling curve with a large enough effect; inconclusive = small, poorly fitted or top-dose-only effect; inactive = no such curve, though single readings can be large or run the other way; note: potency is the fitted concentration of half-maximal effect; the source files actives as falling curves though it sought activators and does not explain the sign; nearly all actives have a fitted effect of over 65% in size; many hits overshoot -100%
Target sequence (P80244 whole entry, looked up): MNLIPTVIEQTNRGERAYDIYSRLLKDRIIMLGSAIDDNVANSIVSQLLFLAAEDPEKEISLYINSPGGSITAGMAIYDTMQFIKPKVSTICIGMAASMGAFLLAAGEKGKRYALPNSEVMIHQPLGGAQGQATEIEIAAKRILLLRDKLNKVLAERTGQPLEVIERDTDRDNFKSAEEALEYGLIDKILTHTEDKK
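Purified B. subtilis ClpP, 10 microg/mL final in Tris/HCl pH8 with KCl, BSA, glycerol and Tween-20, cleaved an Abz/nitrotyrosine-quenched decapeptide. Fluorescence (ex 320, em 430) was read at 0 and 20 min at room temperature. Delta was normalized to 5.8 microM ADEP and DMSO/no-enzyme controls.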
* hit, by the source's call; ? = inconclusive; . = not tested or not shown; [ ] = another dose, or the depositor's remark.

item	smiles	TRPV1 PAM	Menin-MLL FL inh	gsp ag	Sfp PPTase inh	TRPML1 blocker	gsp antag	ClpP mod
1	Cc1cccc(/C=N\Nc2cn[nH]c(=O)c2Cl)c1	3.7	0.4	-15.5%	-1.4%	-7.3	-2.9%	-1.0%
2	O=C(CSc1nc(-c2ccc(F)cc2)cs1)Nc1ccccn1	18.1	3.7	-0.9%[15.4 µM]	-5.5%	-10.3	7.9%	.
3	O=C(NC1CCS(=O)(=O)C1)C12CC3CC(CC(C3)C1)C2 (centres undefined)	-26.2	2.0	7.3%	19.3%	-4.1	2.6%	2.0%
4	O=C(Nc1ccccc1)c1ccccc1NC(=O)[C@H]1CCCC[C@H]1C(=O)O	16.8	0.2	-20.0%	21.5%	-18.8	-12.4%	0.1%
5	O=C(Nc1cccnc1Cl)C1=NN(c2ccccc2)C(=O)CC1	-3.8	-3.0	14.3%	14.9%	2.2	2.0%	0.5%
6	CC(OC(=O)Cc1c[nH]c2ccccc12)C(=O)NC1(C#N)CCCCC1 (centres undefined)	-0.4	.	10.3%	14.1%	12.5	-5.6%	-2.7%
7	Cc1c(Cl)cccc1NC(=O)CSc1nnc(C)n1CC1CCCO1 (centres undefined)	3.3	0.1	-3.4%[15.4 µM]	4.4%	61.8	7.2%	.
8	Cc1ccc2c(c1)N(CCC(=O)NCc1cccnc1)C(=O)CO2	3.1	2.3	0.0%	-1.5%	-11.3	11.1%	-0.5%
9	O=C1C=C(N2CCOCC2)C2(CCCCC2)O1	-22.9	-1.2	-9.9%	-6.8%	29.0	5.7%	.
10	O=C(Nc1ccc(CN2CCOCC2)cc1)c1cc(Cl)ccc1Cl	-5.1	-0.6	4.8%	-12.0%	-0.4	4.7%	-0.1%
11	O=S1(=O)c2c(Oc3cccc4ccccc34)cccc2OC(COCc2ccccc2)CN1C1CCCC1 (centres undefined)	.	.	.	.	9.6	-9.5%	-0.5%
12	COCc1nnc(NC(=O)c2ccc(S(=O)(=O)N3CCCC3)cc2)o1	2.6	-2.8	-77.0%[inhibitor]	-19.2%	11.7	0.8%	-2.9%
13	COc1ccc(NC(=O)c2ccccc2NS(=O)(=O)c2ccc(CNC(C)=O)cc2)c(OC)c1	-5.7	0.6	9.0%[15.4 µM]	18.2%	-9.4	-4.8%	.
14	COc1ccc(-c2csc3nc(-c4ccccc4F)oc(=O)c23)cc1	.	4.6	-3.1%[15.4 µM]	-29.0%	-1.5	-1.2%	.
15	COc1ccccc1NC(=O)NC1(C(=O)N2CCOCC2)CCCCC1	0.5	1.0	7.0%	9.1%	-5.9	7.3%	.
16	O=CN1CCN(C(=O)c2ccc(-c3nc4ccccc4s3)s2)CC1	-11.7	-1.8	6.0%	16.1%	15.1	-3.6%	3.9%
17	Cc1cccc(NC(=O)N2CCN(Cc3ccccc3)CC2)c1	-20.0	-3.9	24.9%	7.2%	-2.4	-2.9%	-6.3%
18	Cc1cc(C)nc(NS(=O)(=O)c2ccc(NC(=O)C3COc4ccccc4O3)cc2)n1 (centres undefined)	20.0	-3.5	19.6%	3.3%	-11.1	-2.0%	.
19	Cc1ccc(N(CC(=O)N2CCCC2)S(C)(=O)=O)cc1C	4.3	-0.1	1.8%[15.4 µM]	14.7%	-6.2	-0.1%	-13.7%
20	COC(=O)c1ccc(NC(=O)CSc2nc(=O)n3cccc(C)c3n2)cc1	0.4	.	4.0%[15.4 µM]	.	0.6	-11.1%	-0.3%
21	COc1ccc(Cc2nc3ccc(C(=O)NCC4COCCO4)cc3o2)cc1OC (centres undefined)	-0.5	-0.7	27.1%	-0.4%	-11.5	9.5%	-3.0%
22	C=CCC1Cc2c(cccc2[N+](=O)[O-])C(CC=C)N1 (centres undefined)	-10.7	-6.4	0.8%[15.4 µM]	2.4%	-7.2	5.7%	-0.3%
23	COC(C(=O)N/N=C(\C)CC(=O)Nc1ccc(N(C)C)cc1)c1ccccc1 (centres undefined)	-0.5	-0.1	25.3%	-11.6%	2.0	-22.9%	.
24	O=C(CSc1nnc(CNC(=O)c2ccc(F)cc2)o1)NCc1ccccc1Cl	1.9	0.4	0.1%	7.4%	31.2	7.1%	0.9%
25	Cc1ccc(C(=O)N2CC(C)OC(C)C2)cc1[N+](=O)[O-] (centres undefined)	-2.3	-0.7	4.6%[15.4 µM]	6.9%	-1.8	5.6%	.
26	Cc1ccc(C(=O)Nc2ccc(C(=O)O)cc2)cc1S(=O)(=O)Nc1cccc([N+](=O)[O-])c1	12.1	-0.3	-4.8%[15.4 µM]	4.0%	-4.3	2.9%	.
27	Cc1cccc(SCc2noc(C(=O)NCC3CCCO3)c2C(=O)O)c1 (centres undefined)	1.9	3.3	.	17.0%	21.1	2.0%	-1.3%
28	CCOCCn1c(SCCc2ccccc2)nc2c1c(=O)[nH]c(=O)n2C	0.1	-1.4	-22.6%	-3.1%	0.1	-2.3%	-1.1%
29	COc1ccccc1NC(=O)C(C(C)C)N1C(=O)c2ccccc2C1=O (centres undefined)	-0.7	-1.0	-8.6%	-1.3%	0.1	-3.8%	0.4%
30	CCC(C)N=C1SCC(C)(/C=N/O)S1 (centres undefined)	-10.0	0.0	1.5%	10.6%	25.2	1.5%	2.7%
31	c1cncc(-c2nn3cnnc3s2)c1	-9.7	-3.4	?	4.2%	-10.7	0.3%	-0.5%
32	Cc1ccc(-n2nnnc2SCC(=O)Nc2ccccc2N2CCCCC2)cc1C	23.2	-1.6	-27.2%	-10.6%	51.8	-4.8%	-0.2%
33	CC1=CC2=NC(=O)CC(C)(C(=O)N(CC(=O)NC(C)(C)C)Cc3ccccc3)N2C=C1 (centres undefined)	10.8	-3.3	18.1%	13.8%	3.3	7.4%	3.5%
34	Cc1c(C(=O)NN)[nH]c2ccc([N+](=O)[O-])cc12	-3.7	1.0	-9.1%[15.4 µM]	0.6%	12.2	-1.3%	0.9%
35	CCC(=O)N1CCN=C1SCc1ccc(Cl)cc1	4.3	2.1	6.9%	12.5%	2.4	15.4%	-0.3%
36	CN(C(=O)c1cc2c(s1)-c1ccccc1S(=O)(=O)C2)c1ccccc1F	13.5	-0.3	-9.5%[15.4 µM]	-5.1%	-6.5	0.6%	.
37	CC(NC(=O)c1cc(-c2ccc3c(c2)OCO3)nc2ccccc12)C(C)(C)C (centres undefined)	-9.0	2.1	?	13.0%	-6.8	0.1%	39.6%
38	COc1ccc(CCNS(=O)(=O)c2c(C)nc3scc(C)n3c2=O)cc1OC	17.0	3.8	5.4%[15.4 µM]	18.8%	-4.5	5.5%	.
39	CCc1ccccc1NC(=S)N=Nc1c(O)n(C)c2ccc(S(=O)(=O)N3CCOCC3)cc12	-2.0	-3.4	-6.5%	18.9%	-3.8	-1.6%	0.2%
40	COc1cccc(-c2cnc3c(c2)C(=O)N([C@H](C)CO)C[C@@H](C)[C@H](CN(C)C(=O)Nc2ccccc2F)O3)c1	.	.	-9.6%	.	-6.8	.	-0.1%
41	COc1ccc(C(=O)COC(=O)/C=C/c2ccccc2)cc1	-5.8	1.0	6.3%[15.4 µM]	17.7%	55.0	14.6%	3.0%
42	O=C(CSc1nc2ccc([N+](=O)[O-])cc2[nH]1)NC1CCCC1	-3.6	3.7	-43.4%	-2.6%	-7.9	-9.2%	-0.7%
43	O=C(N/N=C/C1CC=CCC1)c1cc(Br)ccc1O (centres undefined)	-4.3	-1.4	-44.7%[inhibitor]	14.6%	-1.5	-2.8%	-8.9%
44	Cc1cc(F)ccc1NC(=O)CS(=O)(=O)c1cccc2nsnc12	9.2	.	.	.	29.1	.	1.5%
45	O=C1OC(c2ccccc2)/C(=C(/O)c2ccccc2)C1=O (centres undefined)	5.9	1.9	?	-9.9%	5.1	-5.3%	?
46	O=C(CSc1nnc(-c2ccccc2Cl)o1)N1CCCC1	5.7	-0.4	29.3%	12.5%	3.0	-7.3%	.
47	CC(=NCCCn1ccnc1)C1=C(O)c2ccccc2C1=O	7.3	2.9	-1.2%	-2.0%	-2.6	-2.4%	0.8%
48	O=C(NNc1nc(-c2ccc(F)cc2)cs1)c1ccccc1	25.1	-0.7	-14.1%[15.4 µM]	50.1µM*	28.7	0.5%	.
49	COc1ccccc1NC(=O)C1CCCN(c2cnccn2)C1 (centres undefined)	5.1	-1.3	?	17.4%	-0.3	-2.0%	-20.1%
50	CCOc1ccccc1C(=O)NN1CCOCC1	-2.4	0.3	?	10.7%	-8.2	11.8%	0.4%
51	Cc1ccccc1-c1noc(-c2ccccc2C(=O)O)n1	14.1	0.7	-17.5%[15.4 µM]	16.9%	-1.1	-20.7%	.
52	S=c1[nH]c2cc3c(cc2[nH]1)OCCO3	3.2	1.9	-5.1%	12.1%	-4.2	-11.4%	.
53	Cc1ccc(CN2CCC(CNC(=O)c3ccc(NC(=O)C4=CSCCO4)cc3)CC2)cc1	-2.4	.	9.4%	0.8%	0.9	8.0%	0.4%
